From PubChem
Env fusion inh – inhibitors of HIV-1 Env-driven cell-cell fusion, primary screen, HeLa-JRFL effector, CEM21 target cells, luciferase; 360,000 compounds, 1.1% hits; AID 651610, 2012; inhibition, % at 12.3 µM;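 active = mean replicate inhibition score of at least 50 and every replicate individually at or above 50; inconclusive = only one of the two criteria met; inactive = mean below 50 and not all replicates reaching 50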;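 note: 0% = plate neutral controls and 100% = maraviroc near 300 nM; one replicate is shown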
CSC inhib – cancer stem cell viability inhibitors, primary screen, luminescence; cancer stem cell-like cells viability; inhibition, % at 7.5 µM; 300,000 compounds, 1.1% hits; AID 2717, 2010;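 active = mean at 75% or more and at least half the replicates too; inconclusive = mean and replicates disagree; tested in HMLE shEcad cells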;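 note: 0% = median of negative and 100% = median of positive control wells; the first replicate is given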
MT1-MMP act inh – blockers of MT1-MMP proenzyme processing, primary screen, HT1080 RFP-PRO-GFP cells, GFP/RFP fluorescence. Matrix metalloproteinase-14 (Homo sapiens), P50281. GFP/RFP ratio fluorescence, overnight; percent of plate control window, DMSO zero. GFP/RFP ratio change, % at 20 µM. 360,000 compounds, 0.061% hits. AID 651647, 2012;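 active = GFP/RFP ratio change of at least 30% with cell ATP level not reduced by more than half and red fluorescence within 50% of control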; note: strong numbers were not always called active
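Compound: 20 µM single dose, 1% DMSO / System: HT1080 RFP-PRO-GFP cells / Controls: DMSO and RFP-L50D-GFP cell wells / Read-out basis: GFP/RFP fluorescence ratio / Schedule: overnight compound exposure at 37 °C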
Rce1 inhib – yeast Rce1p protease inhibitors, primary screen, biochemical, fluorescence, cell-free homogeneous; CAAX prenyl protease 2 (Saccharomyces cerevisiae (strain ATCC 204508 / S288c)), Q03530; yeast membranes, quenched prenylated peptide cleavage fluorescence; calls only; 290,000 compounds, 0.27% hits; AID 2563, 2010;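 active = fall in fluorescence gain of 50% or more versus controls, with final raw signal at or below 3038400; inconclusive = same 50% fall but final raw signal above 3038400; inactive = fall in fluorescence gain under 50%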;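 note: plate controls were neutral control wells for no effect and wells lacking membranes for full effect; tested at 10 µM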
eIF4H inh – human eIF4H binding inhibitors, primary screen, translation initiation inhibitor project, biochemical, uHTS, fluorescence polarization | Eukaryotic translation initiation factor 4H (Homo sapiens), Q15056 | eIF4H fluorescence polarization binding assay | inhibition, % at 35 µM | 290,000 compounds, 0.94% hits | AID 2012, 2009;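 active = 50% or more with normal probe brightness, or confirmed in later tests; inconclusive = above 50% with abnormal brightness, or retests that disagree; inactive = below 50% or failed in later tests; about a fifth of its hits are not listed in these tables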;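 note: calls also rest on retests at 20 µM and on dose response follow-up; 0% = protein and probe with vehicle and 100% = probe without protein; strong numbers were not always called active; many hits fall short of the cut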
PABP FP inh – PABP poly(A) RNA binding inhibitors, primary screen, biochemical, fluorescence polarization, uHTS | inhibition, % at 35 µM | 290,000 compounds, 1% hits;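 active = 50% or more with normal probe brightness, or confirmed in later tests; inconclusive = above 50% with abnormal brightness, or retests that disagree; inactive = below 50% or failed in later tests; about a fifth of its hits are not listed in these tables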;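 note: calls also rest on retests at 20 µM and on dose response follow-up; controls were probe without protein and protein plus probe with vehicle; some compounds called inactive have numbers as strong as hits; many hits fall short of the cut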
Target sequence (P11940 whole entry, looked up): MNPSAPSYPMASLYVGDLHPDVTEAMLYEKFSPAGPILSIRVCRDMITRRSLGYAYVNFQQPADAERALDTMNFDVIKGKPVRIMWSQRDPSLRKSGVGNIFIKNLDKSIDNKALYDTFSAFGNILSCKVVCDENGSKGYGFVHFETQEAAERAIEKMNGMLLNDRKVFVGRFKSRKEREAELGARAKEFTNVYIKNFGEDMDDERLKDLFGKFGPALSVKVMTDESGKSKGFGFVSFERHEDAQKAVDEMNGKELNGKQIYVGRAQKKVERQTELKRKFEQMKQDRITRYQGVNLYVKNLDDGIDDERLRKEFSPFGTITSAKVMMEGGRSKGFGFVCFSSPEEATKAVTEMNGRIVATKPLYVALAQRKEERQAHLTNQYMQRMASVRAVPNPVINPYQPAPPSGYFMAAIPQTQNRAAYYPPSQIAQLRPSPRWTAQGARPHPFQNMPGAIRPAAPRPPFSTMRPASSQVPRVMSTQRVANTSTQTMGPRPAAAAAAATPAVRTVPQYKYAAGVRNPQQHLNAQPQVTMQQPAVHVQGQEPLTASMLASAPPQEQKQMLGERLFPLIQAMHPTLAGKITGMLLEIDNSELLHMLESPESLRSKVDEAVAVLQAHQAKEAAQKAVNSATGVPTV
UUG fidelity – modulators of yeast start codon fidelity, primary screen, whole organism, S. cerevisiae, single point, plate reader; 350,000 compounds, 0.13% hits; activity score, % at 18.7 µM; S. cerevisiae UUG-firefly luciferase reporter, luminescence/redox ratio;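 active = replicate mean at a twofold rise or more, about +100% in these data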;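 note: firefly luciferase made from a UUG start codon reports start codon fidelity; reporter light over untreated wells divided by growth signal over untreated wells; some hits fall short of that in this replicate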
eIF4H inh retest – recorded beside eIF4H inh, whose call it bears; inhibition, %; compound at 20 µM; confirmation average;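 mean of two retest wells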
PABP FP inh retest – also measured in PABP FP inh; calls as there; inhibition, %; compound at 20 µM; confirmation repeats;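 mean of two retest wells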
MT1-MMP act inh RFP – second read-out of MT1-MMP act inh, no call of its own (marks repeat the call); RFP signal change, %; measured here: RFP expression control read;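 0 = vehicle wells; hits needed this value within 50% of zero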
Active calls of the source: *; i = inactive; u = inconclusive; x = no result given; + = active, no number; & = joins results of further samples. Some of the compounds tested. The share of hits here may be higher or lower than overall.

SMILES | Env fusion inh | CSC inhib | MT1-MMP act inh | MT1-MMP act inh RFP | Rce1 inhib | eIF4H inh | PABP FP inh | UUG fidelity | others
Cc1ccccc1-c1cc2nc(NCc3ccccc3)n(C)c(=O)c2s1 | -2.9 | x | 5.4 | -0.6 | x | x | x | -8.8
COc1cccc(C2=NOC(C(=O)Nc3ccc4c(c3)OCO4)C2)c1OC (configuration not stated) | 2.9 | -3.5 | 2.3 | 2.2 | i | -1.0 | 7.4 | x
C=CCSc1nc2ccccc2n1Cc1nnc(-c2cccs2)o1 | 12.8 | -9.2 | 1.5 | -3.4 | i | 1.6 | -3.7 | -13.1
Nc1c(Cl)ncnc1N/N=C/c1ccncc1 | 13.6 | 2.0 | 14.5 | -2.5 | i | 7.2 | -6.5 | 5.0
O=C(N1CCN(c2ccccn2)CC1)C(Cl)(Cl)Cl | 22.1 | 3.7 | -2.1 | 0.6 | i | 1.6 | -1.9 | x
O=C(Nc1cccc(Cl)c1)Nc1nnc([C@H]2C[C@H](O)[C@@H](CO)O2)s1 | 1.0 | x | -6.7 | -3.3 | x | x | x | -18.5
Cc1ccccc1C(=O)NC(C(=O)Nc1nc2c(s1)CCCC2)C(C)C (configuration not stated) | 25.7 | 4.2 | -4.5 | -6.8 | i | -1.6 | -8.6 | x
Cc1ccc(NS(=O)(=O)c2cccc(C(=O)N3CCCCCC3)c2)cc1 | -9.5 | x | -2.0 | -3.3 | i | x | x | x
CN(C)C(=O)c1cc2c(c(-c3cccc(C4=CCCCC4)c3)n1)[C@@H](CCO)N(S(=O)C(C)(C)C)C2 (some centres not stated) | 8.6 | x | -1.2 | 10.9 | x | x | x | -1.3
Cc1ccc(NC(=O)C2C3C=CC4(O3)C2C(=O)N(CCN2CCOCC2)C4C(=O)NC2CCCCC2)cc1C (configuration not stated) | -5.1 | -15.2 | -0.7 | 0.8 | x | -20.4 | -4.6 | -7.0
CC1(C(=O)NS(=O)(=O)c2cccs2)CCN1C(=O)C1(c2ccccc2)CCCC1 (configuration not stated) | -10.1 | x | -1.7 | -0.8 | x | x | x | 0.6
COc1ccc(C(=O)N2CCN=C2c2ccccc2)cc1OC | -32.9 | -5.5 | -7.0 | -1.4 | i | 8.0 | 3.5 | -9.8
CN(c1ccccc1)S(=O)(=O)c1cccc(C(=O)NCc2ccccc2)c1 | 6.0 | x | -2.1 | -5.7 | x | x | x | -5.2
COc1ccc(CCN2CC(C(=O)NC3CCCCC3)CC2=O)cc1OC (configuration not stated) | -4.7 | -16.1 | 0.9 | 2.9 | i | 10.8 | 4.8 | -8.4
COc1ccc(Cl)cc1NC(=O)c1cc(-c2ccco2)on1 | -27.1 | -22.5 | -3.8 | 6.4 | i | 5.1 | -14.4 | -10.0
CCOc1ccc(C2(C)NC(=O)N(CCN(C)C)C2=O)cc1 (configuration not stated) | 4.8 | -19.6 | 0.1 | 2.1 | i | -6.9 | -8.2 | -1.3
CCN(CC)c1ccc(/C=C2/C(=O)ON=C2C)cc1 | -23.1 | 7.7 | -7.3 | 5.5 | x | u | -1.0 | x
Cc1cc(=O)[nH]c(N/N=C/c2cccc([N+](=O)[O-])c2)n1 | -21.7 | -14.2 | x | x | i | 0.1 | 5.7 | x
CCC(C)NC(=O)Cn1c(=O)n(CCCCC(=O)NCc2ccco2)c(=O)c2ccccc21 (configuration not stated) | x | -2.2 | 1.0 | -1.9 | i | -14.7 | 0.2 | -14.8
CCN(CC)S(=O)(=O)c1ccc(C)c(NC(=S)N2CCN(C/C=C/c3ccccc3)CC2)c1 | 13.6 | x | -7.4 | -24.6 | i | -4.0 | 6.7 | x
CN(C)C(CNC(=O)c1cccnc1Sc1ccccc1)c1ccco1 (configuration not stated) | 4.5 | -3.0 | -2.5 | 4.0 | i | 14.6 | 14.6 | -8.0
Cc1ccc(C(C(=O)NCc2ccccc2)N(C(=O)c2csnn2)C2CC2)cc1 (configuration not stated) | -0.8 | 3.4 | -1.6 | 1.6 | x | 9.2 | -0.7 | 2.4
O=C(NC(=S)Nc1ccc(S(=O)(=O)N2CCCC2)cc1)C1CC1 | -2.8 | -3.9 | 2.3 | -2.3 | i | -8.4 | 63.4* | x
CCn1c(SC(C)C(=O)NCC2CCCO2)nc2scc(-c3ccccc3)c2c1=O (configuration not stated) | -3.4 | 4.1 | 3.2 | -8.1 | i | x | x | x
O=C(Nc1cccc2ccccc12)N1CCc2ccccc2C1 | x | -4.1 | -0.1 | -1.5 | i | 82.8 | 21.8 | 5.7 | eIF4H inh retest=-6.6;PABP FP inh retest=3.7

Looked up by compound from above, 3 records:
SMILES | Env fusion inh | CSC inhib | MT1-MMP act inh | MT1-MMP act inh RFP | Rce1 inhib | eIF4H inh | PABP FP inh | UUG fidelity | others
Cc1ccccc1-c1cc2nc(NCc3ccccc3)n(C)c(=O)c2s1 | -2.9 | x | 5.4 | -0.6 | x | x | x | -8.8
CC1(C(=O)NS(=O)(=O)c2cccs2)CCN1C(=O)C1(c2ccccc2)CCCC1 (configuration not stated) | -10.1 | x | -1.7 | -0.8 | x | x | x | 0.6
O=C(NC(=S)Nc1ccc(S(=O)(=O)N2CCCC2)cc1)C1CC1 | -2.8 | -3.9 | 2.3 | -2.3 | i | -8.4 | 63.4* | x

Following part:
SMILES | Env fusion inh | CSC inhib | MT1-MMP act inh | MT1-MMP act inh RFP | Rce1 inhib | eIF4H inh | PABP FP inh | UUG fidelity | others
CC1CC(C)CN(C(=O)c2cccc3c2-c2ccccc2C3=O)C1 (configuration not stated) | 4.3 | -6.7 | 2.2 | 4.5 | i | -8.4 | 12.0 | x
Cc1cc(NC(=O)CSCc2nc(-c3cccc(Cl)c3)oc2C)no1 | 11.6 | 0.4 | 4.9 | 2.7 | i | -4.0 | -5.3 | -9.6
C=CCn1c(=NC(=O)c2cccc(N3C(=O)CCC3=O)c2)sc2cccc(OC)c21 | -6.8 | -6.2 | 1.4 | -3.4 | i | 1.1 | 3.4 | x
CN(C(=S)Nc1ccc(F)cc1)C1(c2ccccc2Cl)CCCCC1=O (configuration not stated) | 34.2 | x | -4.8 | -1.2 | i | -8.6 | -2.0 | -5.6
CC1CCCN(C(=O)CCNC(=O)Cn2cnc3ccccc3c2=O)C1 (configuration not stated) | 8.9 | -2.9 | 1.3 | 4.1 | i | -10.2 | 0.0 | -7.0
CC(=O)Nc1ccc(NC(=O)c2cc(-c3cc(C)cc(C)c3O)n[nH]2)cc1 | -5.1 | 66.9 | -2.5 | -15.3 | i | 12.2 | 1.8 | 9.9
CC1C(C#N)=C(SCC(N)=O)NC2=C1C(=O)CC(C)(C)C2 (configuration not stated) | 12.4 | 3.3 | -0.4 | 1.4 | i | -3.5 | 2.1 | x
N#Cc1c(N)c(C#N)c(-c2ccc3c(c2)OCO3)c2c1CCCC2 | -77.9 | 2.3 | -3.0 | -5.1 | i | -13.1 | -10.2 | -9.8
CC(C)NCCOCCOc1ccccc1F | x | 13.9 | 4.3 | 5.2 | i | 2.6 | 2.6 | -5.7
O=C(CCCCCn1c(=O)[nH]c2ccsc2c1=O)NCc1ccc2c(c1)OCO2 | -61.0 | -7.9 | 2.8 | -2.9 | i | 10.2 | -5.6 | -7.8
COc1ccc(CC(=O)Nc2ccc3c(c2)CCC3)cc1OC | x | -6.2 | -0.4 | -30.4 | i | -1.4 | -13.8 | -12.3
COC(=O)[C@H](Cc1c[nH]c2ccccc12)NCc1cccc(B(O)O)c1 | 6.3 | x | 0.3 | 6.1 | x | x | x | -16.4
Cc1cccc(-c2csc(NC(=O)c3cnccn3)c2C(=O)OC(C)C)c1 | 1.7 | 10.4 | -0.9 | 0.1 | x | 8.0 | -1.6 | 0.3
Cc1ccccc1N=C1NC(=O)CC(c2ccccc2)S1 (configuration not stated) | x | -6.5 | -1.5 | -0.2 | i | 4.7 | -4.4 | 7.8
CCOCCCn1c(=N)c(C(=O)NCc2ccc3c(c2)OCO3)cc2c(=O)n3ccccc3nc21 | 3.9 | x | x | x | i | 3.7 | -5.9 | x
CCOC(=O)C1CCCN(CCC(=O)Nc2ccc(Br)cc2)C1 (configuration not stated) | 11.6 | -3.0 | 2.3 | -0.2 | i | 4.3 | 4.1 | 1.2
CCONC(=NC)c1nonc1N | -4.5 | 3.0 | -1.0 | 4.5 | i | -13.1 | 5.5 | -12.3
C/C(CCC1CC(C)(C)OC1=O)=N\NC(N)=S (configuration not stated) | -27.5 | 7.8 | -0.4 | -3.3 | i | -5.7 | -4.2 | x
Cc1onc(-c2c(F)cccc2Cl)c1C(=O)N1C=CC(C(F)(F)F)=NCC1 | x | x | 4.3 | 3.2 | i | -2.3 | 1.6 | -10.3
CCc1nn(C(CC)C(=O)NCCc2ccc(OC)cc2OC)c(=O)c2cc3occc3n12 (configuration not stated) | 40.4 | 13.9 | -1.8 | -2.0 | i | -7.3 | 2.9 | 3.5
Cc1cc(C)n2nc(SCc3cc(=O)oc4ccc5ccccc5c34)nc2n1 | x | -11.6 | -4.9 | 2.4 | i | 28.6 | 12.9 | -16.8
COc1cc2c(C#N)c(N3CCCC3)nc(N)c2c(N)n1 | 6.8&21.9 | -4.6&-8.4 | -4.7&-8.9 | 3.5&4.6 | i | 49.0 | 47.5 | -1.1
CC(=O)NC12CC3CC(C1)CC(C(=O)N1CCN(S(=O)(=O)c4ccc(C(C)C)cc4)CC1)(C3)C2 | x | 44.1 | 1.9 | -5.2 | i | x | x | -10.3
O=C(Cn1nc(-c2cccc(Cl)c2)ccc1=O)Nc1ccccc1Br | -24.0 | -2.4 | 0.4 | -0.8 | i | -1.4 | 1.7 | -19.3
COC(=O)CSc1nc2nc(C)cc(C)n2n1 | -12.1 | 12.5 | 1.8 | 1.5 | i | -7.3 | -7.0 | -10.4
Later entries:
SMILES | Env fusion inh | CSC inhib | MT1-MMP act inh | MT1-MMP act inh RFP | Rce1 inhib | eIF4H inh | PABP FP inh | UUG fidelity | others
C=CCNc1oc(/C=C/c2ccccc2)nc1C#N | x | 14.6 | 2.5 | -0.3 | + | 12.0 | 8.3 | -17.5
COc1ccc(S(=O)(=O)N(C)C[C@H]2Oc3c(NC(=O)NC4CCCCC4)cccc3C(=O)N([C@H](C)CO)C[C@@H]2C)cc1 | -16.6 | -5.1 | -1.9 | -1.8 | x | x | x | 0.1&21.9
Cc1ccc2cc(C#N)c(N3CCCN(C(=S)NCCCN(C)C)CC3)nc2c1 | 29.0 | 10.6 | -1.7 | -1.5 | i | -10.3 | 16.5 | -15.6
CCOC(=O)Cc1csc(NC(=O)c2sc3nc4ccc(C)cc4cc3c2N)n1 | -171.3 | -3.1 | -141.5 | -1.2 | i | 2.2 | 3.0 | -1.8
O=C(CN1C(=O)NC(c2ccccc2)(c2ccccc2)C1=O)N1CCCCC1 | -5.3 | -12.9 | -4.0 | -2.2 | x | x | x | -6.3
CN1C(c2ccccc2)CC(=NO)CC1c1ccccc1 (configuration not stated) | 5.7 | 8.7 | 3.1 | 4.6 | i | 3.4 | -5.0 | -21.3
Cn1cccc1C(=O)NCC(c1ccco1)N1CCCCC1 (configuration not stated) | -0.6 | -9.4 | 0.8 | 1.7 | i | x | x | -13.9
